Mtb growth: M. tuberculosis H37Rv growth inhibitors, H37Rv strain (AID 1626); one-dose inhibition, % at 10 µM; IC50 in µM for titrated hits; M. tuberculosis H37Rv growth inhibition; higher % means a stronger effect; 0.95% of 220,000 active;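 active means confirmed in a dose series; inconclusive means inhibition above 80% but not taken into the dose series; inactive means below 80% or under 30% at every dose of the series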;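 further: bacteria incubated seven days before Alamar blue readout; 0% = bacteria only wells and 100% = bacteria with antibiotic wells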
YopH PTP inh: YopH tyrosine phosphatase inhibitors, primary screen, biochemical, fluorescence Ex485/Em525; YopH tyrosine phosphatase [Yersinia enterocolitica]; 0.16% of 140,000 active; inhibition, %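 (about 10 µM by stock and volumes)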;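 active means inhibition of 50% or more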;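 further: controls were vehicle for no effect and minimum signal wells for full effect; inactives centre near -20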
RecA intein inh: Mtb RecA intein splicing inhibitors, primary screen, biochemical, fluorescence, HTS; 0.75% of 290,000 active; cell-free RecA intein splicing; AID 2221, 2009; inhibition, %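 (about 9 µM by stock and volumes)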; Protein RecA (Mycobacterium tuberculosis (strain ATCC 25618 / H37Rv)), P9WHJ3; in the data active means inhibition above about 30%; inconclusive means no clear call, values can overlap the other calls;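 further: 0% = vehicle wells and 100% = reference inhibitor control wells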
Target sequence (P9WHJ3 whole entry, looked up): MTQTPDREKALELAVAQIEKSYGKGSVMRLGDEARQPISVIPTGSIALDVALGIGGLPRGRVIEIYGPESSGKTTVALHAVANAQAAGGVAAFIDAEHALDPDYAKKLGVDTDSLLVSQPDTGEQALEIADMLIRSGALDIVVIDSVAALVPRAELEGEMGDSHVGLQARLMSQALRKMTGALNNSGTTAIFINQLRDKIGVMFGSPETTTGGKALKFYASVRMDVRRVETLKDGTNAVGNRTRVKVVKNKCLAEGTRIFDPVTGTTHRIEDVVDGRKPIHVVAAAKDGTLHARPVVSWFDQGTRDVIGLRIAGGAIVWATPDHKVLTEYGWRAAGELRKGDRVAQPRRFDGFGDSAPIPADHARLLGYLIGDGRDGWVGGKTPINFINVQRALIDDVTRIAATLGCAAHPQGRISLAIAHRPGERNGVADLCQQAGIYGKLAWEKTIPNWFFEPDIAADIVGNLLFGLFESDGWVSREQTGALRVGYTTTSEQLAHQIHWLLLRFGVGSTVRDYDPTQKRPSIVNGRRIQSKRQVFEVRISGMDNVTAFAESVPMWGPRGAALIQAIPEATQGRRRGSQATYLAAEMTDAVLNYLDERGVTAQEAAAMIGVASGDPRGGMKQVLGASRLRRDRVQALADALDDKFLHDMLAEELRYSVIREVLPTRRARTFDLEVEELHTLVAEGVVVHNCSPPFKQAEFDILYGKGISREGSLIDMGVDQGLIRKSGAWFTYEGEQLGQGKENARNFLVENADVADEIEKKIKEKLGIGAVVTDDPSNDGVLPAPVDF
Arbovirus anti: antivirals against arbovirus infection, primary screen, cell-based, full library, 10K replicate subset; AID 1251, 2008; arbovirus infection cell-based antiviral screen; 0.37% of 200,000 active; inhibition, % at 10 µM;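 active means inhibition from about 30%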;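 further: bluetongue infection of BSR cells; cell survival read as ATP light after 72 h; 0% = infected wells without compound and 100% = uninfected wells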
Mtb betalactam: beta-lactam sensitization of Mtb H37Rv, H37Rv. M. tuberculosis H37Rv growth with meropenem, percent inhibition; hits of this screen are not shown here. inhibition, % at 25 µM. 0.27% of 330,000 active. AID 434955, 2010;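 active means about 74% or more and at least 40 points above the plate without the antibiotic, then above 30% in a dose series; inconclusive means first-round hits that could not be retested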;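 further: growth measured after seven days incubation then overnight dye step; 0% = bacteria only wells and 100% = bacteria with antibiotic; twin plates without the antibiotic show which effects depend on it; some results filed as inactive read as strong as hits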
Arbovirus anti repeat: also measured in Arbovirus anti; calls as there; inhibition, %; measured here: 10K subset replicate screen; many hits read low in the repeat;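 first of two repeat runs on a subset; 0% = infected and 100% = uninfected wells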
* marks the source's active call; other numbers are inactive results; ? = inconclusive; . = not tested or not shown.

A first look, 4 compounds:
SMILES	Mtb growth	YopH PTP inh	RecA intein inh	Arbovirus anti	Mtb betalactam	others
Cc1cc2c(N=NC(=O)C3CC3c3ccccc3)c(O)[nH]c2cc1Br (centres undefined)	43%	-27	7.0	0	79
CCCONC(=O)Nc1ccccc1[N+](=O)[O-]	.	-32	0.2	0	-12
CC[C@H](C)[C@H](NC(N)=O)C(=O)Nc1ccc(C)cc1	1%	-16	-5.3	-2	0
O=C(N/N=C1\CCCc2ccccc21)c1cccc([N+](=O)[O-])c1	-1%	-13	7.9	-11	-4

This part in full, repeating the preview:
SMILES	Mtb growth	YopH PTP inh	RecA intein inh	Arbovirus anti	Mtb betalactam	others
Cc1cc2c(N=NC(=O)C3CC3c3ccccc3)c(O)[nH]c2cc1Br (centres undefined)	43%	-27	7.0	0	79
CCCONC(=O)Nc1ccccc1[N+](=O)[O-]	.	-32	0.2	0	-12
CC[C@H](C)[C@H](NC(N)=O)C(=O)Nc1ccc(C)cc1	1%	-16	-5.3	-2	0
O=C(N/N=C1\CCCc2ccccc21)c1cccc([N+](=O)[O-])c1	-1%	-13	7.9	-11	-4
CC(=O)Nc1ccccc1OCC(=O)NCCC1=CCCCC1	-3%	.	1.0	12	5
CCOC(=O)C1(CCCc2ccccc2)CCN(C(=O)c2cnc(C)cn2)CC1	-1%	.	0.4	5	-12
CC(C)Oc1ccc(C(=O)Nc2ccc([N+](=O)[O-])cc2)cc1	5%	.	1.3	5	16
CCOc1ccc(/C=N/n2c(C3CCCCC3)n[nH]c2=S)cc1	.	.	1.9	.	?
CCc1ccc(NC(=O)CNC(=O)c2cn(-c3ccccc3OC)c(=O)c3ccccc23)cc1	-5%	-9	1.7	4	-1
O=C(C1CC1)N1CCN(c2ccc(F)cc2)CC1	.	.	-2.2	.	-6
Cc1ccnc(SCC(=O)N2CCN(c3ccccc3)CC2)n1	-22%	28	0.5	-1	-20
Cc1nn(C)c2ncc(C(N)=O)c(Oc3ccc(Cl)cc3)c12	-11%	.	-0.6	.	-6
CC(=O)c1ccc(Nc2c3c(nc4ccccc24)CCCC3)cc1	20%	.	-11	.	33
NC(=O)c1nn(-c2ccc(Cl)cc2Cl)c(=O)cc1O	9%	.	-3.1	2	-3
COc1ccccc1-n1c(-c2cn(C)nc2C)n[nH]c1=S	-3%	-31	-2.2	-2	-1
S=C(Nc1ccccn1)Nc1ccccc1Cl	9%	.	5.3	-7	-1
O=C(COC(=O)C1CCN(S(=O)(=O)c2cccs2)CC1)Nc1ccc(F)cc1F	-10%	.	0.1	.	-1
COCCCNC(=S)N1CCC(C(=O)c2ccc3c(c2)OCCO3)CC1	-6%	.	.	9	0
O=C(NCc1cccnc1)C1CCCN(S(=O)(=O)c2cccc3nsnc23)C1 (centres undefined)	0%	-11	0.8	4	8
CN(CC(=O)Nc1ccc(N2CCOCC2)cc1)C(=O)CCNC(=O)c1ccc(Br)cc1	.	.	-0.2	.	-1
O=C(OCc1ccccc1)C1CCCN1C(=O)c1ccccc1[N+](=O)[O-] (centres undefined)	-7%	7	-0.7	-5	-6
CCOC(=O)C1=C(C)N=C2SC(CC)C(=O)N2C1c1cccc(F)c1 (centres undefined)	-2%	-14	2.0	-1	-1
CCc1c(C)nc2ncnn2c1Nc1ccc(C#N)c(Cl)c1	2%	-54	0.2	0	-6
CCNS(=O)(=O)c1ccc(CCC(=O)NCc2cccnc2)cc1	.	.	0.9	.	5
COc1ccc2[nH]c3nc(SCC(=O)Nc4ccc5c(c4)OCO5)nnc3c2c1	0%	-4	0.9	-21	-4
COc1cc(C2=NOC(C(=O)Nc3cccnc3)C2)cc(OC)c1OC (centres undefined)	-6%	.	-0.3	15	4
O=C(Nc1ccc(Cl)cc1C(=O)N1CCOCC1)c1cccc([N+](=O)[O-])c1	4%	-19	0.7	-5	1
O=C(Cn1ccc(=O)[nH]c1=O)NCCO	-5%	.	9.1	8	-13
Cc1cc(C)cc(OCC(=O)Nc2ccc3c(c2)OCCO3)c1	6%	.	0.6	0	-6
COC(=O)c1ccccc1NC(=O)C/C(C)=N/NC(=O)CC#N	-4%	.	-1.1	4	-1
O=C(/C=C/c1ccccc1)N1c2ccccc2Sc2ccc(C(F)(F)F)cc21	13%	-2	-1.2	22	20
Cc1ccc(-c2nnc(COc3cccc(-n4cnnn4)c3)o2)cc1	-3%	-47	-8.2	-2	-11
CC(=O)Nc1cccc(OCCCNC(=O)c2ccc(F)cc2)c1	3%	.	.	.	5
O=C(O)c1ccc(Nc2nc3ccccc3nc2NS(=O)(=O)c2cccs2)cc1	.	.	-5.2	.	-1
COc1cc(C(O)P(=O)(OCC(C)C)OCC(C)C)cc(OC)c1OC (centres undefined)	-7%	-3	2.7	6	-13
CN1CCN(c2nc(-c3ccccc3)cc(C(F)(F)F)n2)CC1	-9%	-27	1.0	21	0
NS(=O)(=O)c1ccc(CCNS(=O)(=O)c2ccc(Cl)nc2)cc1	4%	.	2.1	.	-9
COc1cc(CO)ccc1Oc1nc2ccccc2n2cnnc12	-6%	.	1.1	.	-12
CCOC(=O)Nc1ccc2c(c1)ncn2C1CCCCC1	6%	3	2.5	-5	12
COc1ccccc1Nc1nc(N)nc(CSC(=S)N2CCOCC2)n1	5%	.	-0.5	.	4
Cc1nccc2c1[nH]c1ccccc12	.	.	-4.9	.	0
COC(=O)c1cccc(NC(=O)CN2CCOCC2)c1	-6%	-9	-0.7	0	-2
CCOc1ccc(-c2nnc(NC(=O)C3CCCC3)o2)cc1	.	.	0.5	.	97
COc1ccc(C2=NOC(C)(c3nnc(Cc4ccccc4)o3)C2)cc1 (centres undefined)	-5%	.	-2.3	.	-3
O=C(NCCc1ccccc1)c1nc2ncccn2n1	-3%	5	0.5	-1	-8
COc1cccc(C(=O)OC2CCCN(C)C2)c1 (centres undefined)	0%	-13	-1.7	11	-2
OC(COCC1COc2ccccc2O1)CN1CCc2ccccc2C1 (centres undefined)	-1%	-36	0.0	-11	2	Arbovirus anti repeat=-7
O=C(O)CCCCCN1C(=O)/C(=C\c2ccc(-c3ccc(Cl)cc3)o2)SC1=S	42%	.	1.6	.	97
CCCc1nc(SCC(=O)N2CCOCC2)c2c(C)c(C)sc2n1	.	.	1.2	.	6
Cc1ccc(-c2nn[nH]n2)cc1Cl	0%	.	-2.5	.	-14
O=C(NC(=O)c1ccc(Cl)c(Cl)c1)OC1CCS(=O)(=O)C1 (centres undefined)	4%	-38	-0.2	4	5
Cc1cc(/C=C(\C#N)C(=O)Nc2ccccc2F)c(C)[nH]1	0%	.	-19	8	-3
CC1CCc2c(sc3ncnc(NS(=O)(=O)c4cccs4)c23)C1 (centres undefined)	-5%	.	0.1	17	-5
COCCSc1nnc(NC(=O)C2CC(=O)N(c3ccc(OC)cc3)C2)s1 (centres undefined)	.	.	2.1	8	4
Cn1c(/C(C#N)=C(\O)c2ccc(Br)s2)nc2ccccc21	.	.	-20	.	5
CN(Cc1ccccc1)S(=O)(=O)CCNC(=O)c1ccc2c(c1)OCO2	.	.	-2.0	.	-19
Cc1ccc(S(=O)(=O)NCc2nnc(SCC(=O)Nc3cccc(C)c3C)n2C)cc1	-7%	-3	-0.4	5	-3
Cc1ccc(NC(=O)C2CCCN(S(=O)(=O)c3c(C)noc3/C=C/N(C)C)C2)cc1F (centres undefined)	-12%	-42	.	-7	7
O=C(NNc1c(Cl)cccc1Cl)c1sccc1Cl	4%	.	-0.8	.	9
COC(=O)/C(C#N)=C1/C=Cc2ccccc2N1	4%	.	1.5	-4	5

(more compounds)
SMILES	Mtb growth	YopH PTP inh	RecA intein inh	Arbovirus anti	Mtb betalactam	others
Cc1ccc(S(=O)(=O)N(CC(=O)NCc2ccccc2Cl)C(=O)N2CCN(C)CC2)cc1	.	.	0.0	.	-6
O=C(/C=C/c1ccc(O)c(O)c1)c1ccc(S(=O)(=O)N2CCCCCC2)cc1	3%	-14	-4.8	-32	2
COc1ccccc1C1CC(c2ccc(C)cc2)Nc2ncnn21 (centres undefined)	0%	-49	-3.8	14	9
O=C(CN(CC1CCCO1)C(=O)CNS(=O)(=O)c1ccc(Cl)cc1)NCCc1ccccc1 (centres undefined)	-5%	-5	0.1	0	12
COc1c[nH]n(C2CCCCC2)c(=O)c1=O	1%	-50	1.8	0	98
Cc1cc(NC(=O)COC(=O)c2c(C)nn(Cc3ccccc3)c2Cl)no1	3%	-23	1.8	-1	-4
CCCCCCc1cc2cc(-c3nnc(-c4ccccc4)o3)c(=O)oc2cc1O	9%	6	-0.7	-44	5
CCOC(=O)c1sc2nc3c(SCC(=O)O)cc(C(=O)c4ccccc4O)cn3c(=O)c2c1C	-2%	.	-0.1	4	-3
Cc1cccc(C(=O)OCc2cc3ccccc3[nH]c2=O)c1	9%	-34	0.2	1	-1
COc1ccccc1C(CNC(=O)C(CCSC)NS(=O)(=O)c1ccccc1F)N1CCCC1 (centres undefined)	.	.	-1.9	.	-3
[N-]=C=C1C(=S)NC(=O)[C@H]([n+]2ccccc2)[C@H]1c1ccc(Cl)cc1	10%	.	1.2	.	-3
CN1C(C(=O)Nc2ncccn2)=C(O)c2ccccc2S1(=O)=O	.	.	-0.7	.	-3
CC1CCC(NC(=O)c2cccc(S(=O)(=O)N3CCN(C)CC3)c2)CC1 (centres undefined)	.	.	0.4	.	-14
Clc1ccc(-n2ncc3c(NCCCn4ccnc4)ncnc32)cc1	-5%	-11	2.5	3	-3
CC(=O)NC(c1ccccc1)c1nc2ccccc2[nH]1 (centres undefined)	-7%	-19	-0.9	6	2
COc1ccc(C2=C/C(=C/c3cccnc3)C(=O)O2)cc1OC	-4%	-28	-0.8	6	59
COc1ccc(NC(=O)Nc2nc(C)cc(C)n2)c(OC)c1	-10%	.	0.9	.	-6
O=C(NC(=S)N1CCCCCC1)C1CC1	1%	-10	1.2	3	0
CCN(c1ccccc1)S(=O)(=O)c1ccc2c(c1)N(C(C)=O)CCO2	.	.	0.4	.	1
O=C(NCC1CCN(c2ccc(S(=O)(=O)N3CCOCC3)cc2)CC1)Nc1ccccc1F	.	.	2.0	.	-8
CCc1ccc2c(CN(C)Cc3ccc(OC(F)F)c(OC)c3)cc(=O)oc2c1	.	.	6.2	.	2
CCOc1ccc(/C=C2\SC(=S)N(CC(=O)Nc3ccccn3)C2=O)cc1	.	.	-1.9	.	-5
CCn1c(C)c(C)c2cc(C(=O)NCCN3CCCCCC3)ccc21	.	.	2.6	.	7
CCN1C(=O)N[C@@H](c2cccs2)C(C(C)=O)=C1C	-16%	.	-0.5	.	-6

Three compounds picked at random from those above, as already listed:
SMILES	Mtb growth	YopH PTP inh	RecA intein inh	Arbovirus anti	Mtb betalactam	others
CC1CCC(NC(=O)c2cccc(S(=O)(=O)N3CCN(C)CC3)c2)CC1 (centres undefined)	.	.	0.4	.	-14
O=C(NCC1CCN(c2ccc(S(=O)(=O)N3CCOCC3)cc2)CC1)Nc1ccccc1F	.	.	2.0	.	-8
CCc1ccc2c(CN(C)Cc3ccc(OC(F)F)c(OC)c3)cc(=O)oc2c1	.	.	6.2	.	2

(continued)
SMILES	Mtb growth	YopH PTP inh	RecA intein inh	Arbovirus anti	Mtb betalactam	others
O=C(CSc1nnc(-c2cccnc2)n1Cc1ccco1)Nc1nc(-c2ccc(F)cc2)cs1	3%	-31	-0.4	-2	-10
CCCc1nc2ccccc2c(=O)n1/N=C/c1c(C)[nH]n(-c2ccc(C)cc2)c1=O	5%	-3	17	-32	85
COc1ccc(CCNC(=O)C2CCCN(c3nc(C)cc(C)n3)C2)cc1 (centres undefined)	2%	.	-1.0	15	-7
CS(=O)(=O)N(CC(=O)NCC1CCCO1)c1cccc([N+](=O)[O-])c1 (centres undefined)	2%	.	-2.1	9	-2
CCc1ccc(/C=C/C(=O)C2C(=O)c3ccccc3C2=O)cc1	1.8µM*	-9	33*	5	98
O=[N+]([O-])c1cc(C(F)(F)F)cc([N+](=O)[O-])c1NCCN1CCNCC1	.	.	7.7	.	4
Cn1c(-c2cc3ccccc3oc2=O)nc2ccccc21	-16%	.	-1.0	.	0
O=C(COn1nnc2ccccc21)N1CCN(Cc2ccccc2)CC1	5%	.	-0.1	6	3
Cc1cc(C)cc(-n2c(SC(C)C(=O)NCc3ccc4c(c3)OCO4)nc3ccccc3c2=O)c1 (centres undefined)	4%	-22	-0.1	6	3
O=C(COC(=O)C1CCC1)NCc1ccc(F)cc1	.	.	-3.4	.	4
COc1ccccc1/C=C/C(=O)OCC(=O)NCCC1=CCCCC1	2%	.	-1.8	7	5
Cc1ccc(NC(=O)COc2cccc(/C=C3\SC(=S)N(CCC(=O)O)C3=O)c2)cc1Cl	16%	.	31*	.	7
Clc1cc2c(c(Cn3cnc4ccccc43)c1)OCOC2	-3%	-29	.	8	6
O=C(CSc1ccccc1)Nc1ccc(C(=O)Nc2ccc(O)cc2)cc1	-4%	.	-0.3	-18	.

From PubChem BioAssay

A portion of the library; rates above refer to the full screens.
